NPYLR7 agonist: activates Aedes aegypti NPYLR7 receptor. HEK293T NPYLR7/Galpha15, GCaMP6s calcium fluorescence. activation, % at 10 µM. 270,000 compounds, 0.15% hits; in the data active = activation above about 40%;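 also: 0% = vehicle and 100% = reference agonist at the receptor; some compounds past the cut are filed as inactive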
NPYLR7 agonist max-min: recorded beside NPYLR7 agonist, whose call it bears; activation, %; measured here: Max-Min RFU normalised activation; some inactives read as strong as hits;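 span of the calcium signal over five minutes; 0% = vehicle and 100% = native peptide agonist; compound fluorescence can raise it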
An asterisk follows results filed as active; & = joins results of further samples. These rows are one share of the data, so the mix of outcomes need not match the whole.

SMILES	NPYLR7 agonist	NPYLR7 agonist max-min
O=C1OC(/C=C\c2cccc([N+](=O)[O-])c2)=NC/1=C/c1ccccc1Cl	4	-3
CCOC(=O)C1(Cc2cccc(Cl)c2)CCCN(Cc2cnn(C)c2)C1 (stereo not drawn)	9	11
O=C1CN=C(Nc2nc3ccccc3s2)N1	-4	-3
N#Cc1c(Cl)nsc1NC1CCN(C(=O)c2ccco2)CC1	-12	-16
CCOC(=O)N1CCC(NC(C)c2ccccc2-n2cccn2)CC1 (stereo not drawn)	14	0
COc1ccc(CN2CCN3C(=O)CN(C)C(=O)C3C2)cc1Cn1cccn1 (stereo not drawn)	7	7
CN1CCN(CCCNC(=O)CCc2ccccc2)C(c2ccccc2)C1 (stereo not drawn)	3	-1
Cc1cc(C)cc(-n2nnnc2SCC(=O)N2CCCC3CCCCC32)c1 (stereo not drawn)	6	6
COc1ccc2c(c1)CCc1c-2noc1-c1ccc(NC(=O)c2ccccc2I)cc1	3	-3
CCN(CC)C(=O)CCN1C(=O)c2ccccc2C1=O	-14	-22
O=c1oc2ccccc2cc1-c1nnc(-c2ccccc2O)o1	-13	-18
CCOC(=O)C1(CCOC)CCCNC1 (stereo not drawn)	15	12
COCC(=O)N1CCCN(Cc2cn[nH]c2-c2cc(C)ccc2C)CC1	-1	0
Cc1ccc2c(c1)CCN1C(=O)CN(C(=O)Nc3ccc(Oc4ccccc4)cc3)CC21 (stereo not drawn)	-2	13
Cc1cn2c(=O)c(C(=O)Nc3ccccc3)cnc2s1	6	1
O=C(CCc1nc2ccccc2s1)NC1CCCc2c1cnn2-c1ccc(F)cc1F (stereo not drawn)	10&10	3&3
CCOC(=O)N1CCN(C(=O)c2cn(C/C=C/c3ccccc3)nn2)CC1	0	-2
COc1ccccc1-c1cc(C(=O)NCC2CCCCC2)no1	1	-2
CNc1nc2cnc(Nc3ccccc3Cl)cc2n1Cc1ccc(OC)c(OC)c1	3	0
CC[C@H]1C[C@@H](NC(=O)c2ccccc2)C[C@@H](c2ccc3nonc3c2)O1	3	2
Cc1nn2c(=O)[nH]c(SCC(=O)N3CCOCC3)nc2c1-c1ccccc1	18	12
Cc1cc(C)c2c(CC(=O)N[C@@H]3C[C@H]4C(=O)NCC(=O)N4C3)coc2c1C	7	4
Cc1ncoc1C(=O)NCc1cccnc1N(C)Cc1ccccc1	-2	-4
CC1(c2cccnc2)NC(=O)N(CCc2ccccc2Cl)C1=O (stereo not drawn)	9	9
COc1ccc(C(=O)N=Nc2c(O)n(CN(C)C)c3ccccc23)cc1OC	-6&2	-9&1
CCOC(=O)c1cc(-c2cccc(NC(=O)c3cc(Cl)nc(OC)c3)c2)n(-c2ccccc2OC)n1	30	19
CC1(C)CC(=O)C2=C(C1)Nc1ccccc1S2(=O)=O	-2	-6
COc1ccc(CNC(=O)CCc2ccc(-c3ccc(F)cc3)n2-c2ccc(NC(C)=O)cc2)cc1	1	-2
COCCc1nc2ccc(C(=O)N3CCN(c4nc(C)cnc4C)CC3)cc2o1	-6	-5
COc1ccc(NC(=O)c2ccc(CSc3nnc(-c4ccco4)n3-c3ccc(F)cc3)cc2)cc1	6	5
Cc1cc(N2CCOCC2)nc(Nc2ccc(NS(=O)(=O)c3ccc(C)c(C)c3)cc2)n1	2	-1
c1coc(CN(c2ncnc3sccc23)C2CC2)c1	-1	-4
COc1cccc(C(=O)N2CCC3(CC2)OCC(C(=O)NCc2ccccn2)N3C(=O)c2cccc(C)c2)c1 (stereo not drawn)	3	15
Cc1ccc2nc(-c3ccccc3)cc(C(=O)Nc3ccccc3C)c2c1	0	-4
Cc1ccc(CN(C)C(=O)C2CC(C(C)C)=NO2)o1 (stereo not drawn)	-2	-2
Clc1ccc2nc(CSc3ccccc3)cn2c1	2	1
Cc1ccc(Nc2nc(N3CCOCC3)nc3nccnc23)c(C)c1	13	9
CCc1nc2c(OCCn3cccc3)cccn2c1N(C)C(=O)c1ccc2c(c1)OCO2	-19	3
O=C1C2C3C=CC(CO)(O3)C2C(=O)N1c1ccc(Cl)cc1 (stereo not drawn)	3	0
O=C(NCC1CCCO1)[C@@]1(OCc2ccc(F)cc2)CC(OCc2ccc(C(F)(F)F)cc2)[C@H](O)[C@H](O)C1 (stereo partly drawn)	32	38
COc1ccc(OC)c(S(=O)(=O)c2cc3cc(OC)ccc3oc2=O)c1	5	2
O=C(c1ccc(C(F)(F)F)cc1)N1CCCC(OCc2cccc([N+](=O)[O-])c2)C1 (stereo not drawn)	-4	-2
O=C(NC1CCSCC1)c1ccc(-n2ccc(C(F)(F)F)n2)cc1	7	2
CN1CCN(Cc2nc3c(c(=O)n(C)c(=O)n3C)n2CCCO)CC1	3&11	0&12
O=C(Nc1ccccn1)N1CCCN(Cc2ccccc2F)CC1	7	7
COc1cccc(-c2n[nH]c3c2CN(C(=O)c2cc(C(C)C)no2)CC3)c1	5	0
CC(C)NC(=O)[C@@]1(OCc2ccccc2C#N)CC(OCc2ccc(C(F)(F)F)cc2)[C@@H]2OC(C)(C)O[C@@H]2C1 (stereo partly drawn)	3	9
CCOC(=O)CNC(=O)CSc1ncnc2c1nnn2Cc1ccccc1F	17	16
Cc1cc(N2CCc3[nH]nc(C(C)C)c3C2)nc(-c2cccnc2)n1	-1	-5
O=S(=O)(Nc1cc2c(cc1Cl)OCCO2)c1ccc(Cl)cc1	2	7

Additional structures
SMILES	NPYLR7 agonist	NPYLR7 agonist max-min
O=C(NCCc1ccccc1)c1ccccc1NS(=O)(=O)c1ccccc1F	-2	-5
Cc1c(C(=O)c2cccc(S(=O)(=O)N3CC(C)OC(C)C3)c2)c2ccccn2c1CCC#N (stereo not drawn)	5	15
CC(Sc1nnc(N2CCCC2)n1C1CC1)C(=O)N1CCc2ccccc2C1 (stereo not drawn)	0	-3
C=CCn1c(SCc2ccccc2Cl)nnc1-c1ccc(OC)cc1	14	24
O=C(c1cccc(NCc2ccc(F)cc2)c1)N1CCNCC1	20	9
Cc1ccc(-c2cc(C(F)(F)F)n3ncc(C(=O)Nc4cccc(Cl)c4Cl)c3n2)cc1	6	1
O=C(CC1C=CS(=O)(=O)C1)NCC1(c2ccc(Cl)cc2)CC1 (stereo not drawn)	-7	-7
CCOC(=O)C1CCN(c2cc(Oc3ccc(F)cc3Cl)ncn2)CC1	9	9
COc1ccc(CNC(=O)CSc2nc3ccccc3s2)cc1	-9	-14
CC(C)(C)c1nc(C(C)(C)C)c(Br)c(=O)[nH]1	-2	-1
O=C(NCCN1CCCC(c2ccccc2)C1)c1cn(Cc2ccc(Cl)cc2)nn1 (stereo not drawn)	6	-4
CC1CC1C(=O)NCCC(=O)NNc1c(F)c(F)nc(F)c1F (stereo not drawn)	0	18
Cc1ccccc1Cn1cccc(C(=O)O)c1=O	-2	-3
O=C(NCCc1cccc(Cl)c1)N1CCN(S(=O)(=O)c2cccc(Br)c2)CC1	4	2
Cc1c(C)n2c3c(=O)n(CCCO)c(=O)n(C)c3nc2n1-c1ccccc1F	-10	-11
CC1CCc2c(C(=O)NCc3nnc4n3CCCCC4)csc2C1 (stereo not drawn)	1	0
COc1ccc(C(=O)NC2CCC(NC(=O)[C@H]3CCCN3S(=O)(=O)c3ccc(F)cc3)CC2)cc1 (stereo partly drawn)	17	15
O=C(COc1cccc(Cl)c1)NCC1(N2CCOCC2)CCSC1 (stereo not drawn)	-4	-4
Cc1cccc(CN2CCC(O)(c3ccc4oc(C(=O)N(C)Cc5cscn5)cc4c3)CC2)c1	25	14
CCc1cn[nH]c1C1CCCN(C(=O)c2c(-c3ccccc3)ccnc2C)C1 (stereo not drawn)	4	3
CN=c1scc(-c2ccc(OC(F)F)cc2)n1N=Cc1cc(OC)c(O)c(OC)c1	-6	-13
CCCCN(Cc1cccn1C)C(=O)CN(CCCOC)C(=O)c1cccc(Br)c1	-8	-6
O=C(Nc1nnc(-c2ccc(F)cc2)s1)c1ccc(N2C(=O)CCC2=O)cc1	-4	-9
COc1cccc(-c2nc(C=Nc3cccc(C(F)(F)F)c3)c(O)o2)c1	-5	-4
O=C(C1CNCCN1C(=O)c1cccc2nccnc12)N1CCCC1 (stereo not drawn)	-1	-3
CNc1cc(-c2cc(OC)ccc2OC)ncn1	2	0
Cc1[nH]c(-c2ccccc2)nc1CN1CCN(C)C[C@@H]1c1ccccc1	2	-1
COc1ccccc1C(O)c1ncc(-c2ccccc2C)[nH]1 (stereo not drawn)	2	-1
COc1ccc(-c2c3c(=O)n(C)c(=O)n(C)c3c3c(-c4ccccc4)cc(C)nn23)cc1	-11	-16
Cc1cccc2nc(C(=O)N3CC(c4ccncc4)C3)cn12	-2	19
N=c1ccccn1CN1C(=O)c2ccccc2C1=O	0	-7
CCCN(Cc1ccccc1C(F)(F)F)Cc1c(C)nn(-c2cccc(F)c2)c1N1CCN(C)CC1	5	23
COc1ccc(-c2ccc3nc[nH]c3c2)c(C)c1	5	3
Cn1cc(CCC(=O)N2CCOC(CCCc3ccccc3)C2)cn1 (stereo not drawn)	3	3
CC(C)(CCl)C(=O)N(CC(=O)N1CCc2sccc2C1c1ccc(Cl)cc1Cl)Cc1ccc(F)cc1 (stereo not drawn)	19	19
CCOc1ccc(CC(=O)Oc2coc(CSc3ncccn3)cc2=O)cc1	-16	-16
CCOC(=O)c1[nH]c(C)c(C(=O)CN(CC)C(=O)c2cccc3ccccc23)c1C	19	23
CCCOc1cc(C)c2c(c1C)C[C@H]([C@H](C)C(=O)NCCO)CC2	-9	-15
